High-throughput results as filed in PubChem BioAssay.
PKD1 inh: inhibitors of human PKD1 kinase; PKD1 kinase fluorescence polarization assay; inhibition, %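 (about 10 µM by stock and volumes)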; 200,000 compounds, 0.056% hits; AID 797;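 active = inhibition of 50% or more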;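 also: controls were vehicle for no effect and a reference inhibitor for full effect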
Insulin prom inh: TRM-6 insulin promoter activity inhibition. TRM-6 cells (human fetal islet line), insulin promoter-eGFP reporter, imaging; reporter expression induced with tamoxifen. inhibition, % at 2 µM. 130,000 compounds, 0.9% hits. AID 1273;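 active = inhibition above the mean plus 3 SD, with well images judged a real hit on visual review, cut at about 60% in these data, passing the limit was not always enough; inconclusive = inhibition over the cutoff but images rejected on review; inactive = inhibition not above the cutoff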
HSV augment: increases HSV replication in cells; 220,000 compounds, 0.005% hits; maximum fold increase; AID 1956; HSV replication augmentation in cells, fold increase;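 active = peak rise of 1.5-fold or more in the series; inconclusive = self-fluorescent or not available for retest; tested in PC3 cells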;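 also: first round at 10 µM; read as green reporter fluorescence; hits show the peak of a series up to 25 µM; 1 = signal of infected wells without compound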
RGS16-Gao: RGS16-Galphao interaction regulator (human); O15492+P09471; bead-based flow cytometry RGS16-Galphao binding, fluorescence; actives lie on both sides; binding response (% of control), % at 10 µM; 220,000 compounds, 0.38% hits;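 active = below 25% or above 175%, edge rows of some plates excepted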;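 also: Galphao activated by GDP with aluminum fluoride before binding; 100% = wells without compound and 0% = beads without RGS; some results beyond the cut were filed as inactive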
Target sequence (O15492 whole entry, looked up): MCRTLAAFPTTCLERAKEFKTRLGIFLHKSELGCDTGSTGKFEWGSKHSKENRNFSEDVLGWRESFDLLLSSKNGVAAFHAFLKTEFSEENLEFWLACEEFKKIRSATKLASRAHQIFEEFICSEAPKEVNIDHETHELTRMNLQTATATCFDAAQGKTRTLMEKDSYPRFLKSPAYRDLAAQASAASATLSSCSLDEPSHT
Target sequence (P09471 whole entry, looked up): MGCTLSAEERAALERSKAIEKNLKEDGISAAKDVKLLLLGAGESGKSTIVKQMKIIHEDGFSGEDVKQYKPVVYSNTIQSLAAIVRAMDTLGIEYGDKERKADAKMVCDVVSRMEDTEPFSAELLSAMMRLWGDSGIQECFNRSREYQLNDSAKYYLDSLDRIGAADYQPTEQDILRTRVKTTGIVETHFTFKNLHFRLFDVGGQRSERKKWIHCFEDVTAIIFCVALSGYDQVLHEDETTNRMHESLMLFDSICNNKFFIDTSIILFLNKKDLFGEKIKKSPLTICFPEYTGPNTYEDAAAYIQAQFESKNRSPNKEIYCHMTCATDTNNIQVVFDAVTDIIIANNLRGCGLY
GALR2 agonist: GALR2 (human) receptor agonism; O43603; GALR2-expressing cells, agonist activation read-out; activation, %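 (tested at 5 µM)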; 140,000 compounds, 0.48% hits; AID 803;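 active = above mean plus 3 SD of all compounds, about 5% in these data, not always enough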;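 also: 0% = vehicle buffer wells and 100% = reference agonist at full effect; tested in CHO reporter cells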
Target sequence (O43603 whole entry, looked up): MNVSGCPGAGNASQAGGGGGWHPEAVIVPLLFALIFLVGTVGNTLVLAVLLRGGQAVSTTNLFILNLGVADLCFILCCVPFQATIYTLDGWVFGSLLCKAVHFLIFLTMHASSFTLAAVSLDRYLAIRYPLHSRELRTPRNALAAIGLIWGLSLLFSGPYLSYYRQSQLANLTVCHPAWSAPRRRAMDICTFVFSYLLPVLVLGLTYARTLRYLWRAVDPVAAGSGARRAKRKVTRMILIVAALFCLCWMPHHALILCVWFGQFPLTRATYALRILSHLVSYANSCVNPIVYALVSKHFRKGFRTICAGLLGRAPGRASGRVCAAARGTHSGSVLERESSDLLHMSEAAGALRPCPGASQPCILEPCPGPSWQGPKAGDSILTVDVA
Insulin prom inh cell count: further read-out of Insulin prom inh, marked with its call; normalized cell count, %; measured here: cell count, toxicity; reference of the scale not given here;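 cells exposed to compound for 48 h; stained nuclei by imaging scaled within each plate; lower means fewer cells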
HSV augment primary fold: recorded beside HSV augment, whose call it bears; fold increase; compound at 10 µM; measured here: primary screen fold increase 10 uM; tested in PC3 cells;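 GFP signal in the first replicate; 1 = infected wells without compound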
* hit, by the source's call; i = inactive; ? = inconclusive; · = not tested or not shown.

Start of the listing, in advance:
SMILES	PKD1 inh	Insulin prom inh	Insulin prom inh cell count	HSV augment	HSV augment primary fold	RGS16-Gao	GALR2 agonist
COc1ccc(C(NC(=O)C(C)(C)C)NC(=O)C(C)(C)C)cc1	0.2	-95.0	119.5	i	0.977	105.1	-0.1
COc1ccc(OC)c(NC(=O)c2cccnc2Sc2ccccc2)c1	-2.4	10.7	90.0	i	0.96	71.0	-1.4
C/C(=N\NC(=O)c1ccccc1)c1ccc(N2CCOCC2)cc1	0.3	-3.3	77.1	i	1.04	105.8	-1.1
CCN1CCN(C(=O)Nc2cccc(C(F)(F)F)c2)CC1	-5.1	42.9	128.1	i	0.92	94.6	-3.3
O=C(Nc1ccc(F)cc1)c1nc2c(nnn2Cc2cccc3ccccc23)c(=O)[nH]1	·	·	·	i	1.1	114.1	·

The list itself, from the first entry:
SMILES	PKD1 inh	Insulin prom inh	Insulin prom inh cell count	HSV augment	HSV augment primary fold	RGS16-Gao	GALR2 agonist
COc1ccc(C(NC(=O)C(C)(C)C)NC(=O)C(C)(C)C)cc1	0.2	-95.0	119.5	i	0.977	105.1	-0.1
COc1ccc(OC)c(NC(=O)c2cccnc2Sc2ccccc2)c1	-2.4	10.7	90.0	i	0.96	71.0	-1.4
C/C(=N\NC(=O)c1ccccc1)c1ccc(N2CCOCC2)cc1	0.3	-3.3	77.1	i	1.04	105.8	-1.1
CCN1CCN(C(=O)Nc2cccc(C(F)(F)F)c2)CC1	-5.1	42.9	128.1	i	0.92	94.6	-3.3
O=C(Nc1ccc(F)cc1)c1nc2c(nnn2Cc2cccc3ccccc23)c(=O)[nH]1	·	·	·	i	1.1	114.1	·
Cc1cccc(NC(=O)NNC(=O)c2sccc2-n2cccc2)c1	-3.9	·	·	i	0.83	122.8	·
Cc1cc(C(F)(F)F)c(C#N)c(SCC(=O)Nc2nc3cc(Br)ccc3s2)n1	-1.9	-100.0	105.3	?	·	100.4	0.2
O=C(CSc1nnc(-c2ccco2)o1)c1ccc[nH]1	-6.6	-66.7	105.9	i	0.93	94.9	·
O=C(O)CSCc1nc2scc(-c3ccccc3)c2c(=O)[nH]1	0.4	11.1	97.5	i	0.91	102.3	·
COc1cccc2cc(C(=O)NC3CC(C)(C)NC(C)(C)C3)c(=O)oc12	-8.8	12.9	59.5	i	1.17	·	-1.5
O=C(c1nc2n(n1)C(c1ccc(Cl)cc1)C=C(c1ccccc1)N2)N1CCOCC1 (stereo not drawn)	0.5	-17.6	61.8	·	·	111.2	-0.9
CCCCC(c1nnnn1CS(=O)(=O)c1ccc(C)cc1)N1CCN(c2ccccc2)CC1 (stereo not drawn)	-10.5	-36.8	131.0	·	·	101.0	-0.6
O=C(N/N=C/c1oc(O)c2ccccc12)c1ccccc1	-3.7	·	·	i	1.04	98.2	·
COc1ccc(C(=O)N2CCN(c3cccc(Cl)c3)CC2)cc1	4.9	-38.5	69.4	i	1.11	102.0	-2.6
Cc1cc(-c2onc(C)c2C(N)=O)no1	·	·	·	i	1.06	97.5	·
CC(/C=C1\SC(=S)N(C(C(=O)O)c2ccccc2)C1=O)=C\c1ccccc1 (stereo not drawn)	·	·	·	i	0.95	110.8	·
COc1ccc(-c2ccc(OC)c([C@H]3[C@H]4C=CC[C@@H](C)[C@@H]4C(=O)N3Cc3ccccc3)c2)cc1C	·	·	·	i	0.85	91.8	·
CN(Cc1ccccc1)C(=O)CN1C(=O)C2C3C=CC(C3)C2C1=O (stereo not drawn)	5.6	23.3	125.0	i	0.9	100.1	-2.6
CCC1CCCCN1CCCNC(=O)Cn1nc(-c2ccc(C)cc2)ccc1=O (stereo not drawn)	-8.2	-21.9	100.3	i	0.96	103.5	-1.8
CC(C)(C)N=C1NN=C(c2ccc(Cl)cc2)CS1	·	·	·	i	1.04	102.1	·
CSc1cccc(NC(=O)c2ccccn2)c1	4.7	·	·	i	1.34	97.7	·
COC(=O)CCN(C(=O)c1ccc2c(c1)OCO2)c1ccccn1	0.9	40.9	119.6	i	1.09	100.4	-3.5
Cc1ccc(NC(=O)Cn2c(O)c(N=NC(=O)c3cc4ccccc4cc3O)c3ccccc32)cc1	-3.6	·	·	i	0.63	102.0	0.3
CCn1cnc2cc(NCc3nc4ccccc4n3C)ccc21	-2.9	·	·	i	0.78	100.6	-1.7
Cc1onc(-c2ccccc2Cl)c1C(=O)Nc1ccc(OCC(=O)N2CCOCC2)cc1	-5.0	-37.5	131.6	i	0.89	105.5	-1.6
COc1cccc(/C=N/NC(=O)c2cc3c(OC)cccc3[nH]2)c1O	-6.0	4.0	60.5	i	0.58	87.0	3.9
CC1(CCc2ccccc2)NC(=O)N(CC(=O)Nc2ccccc2)C1=O (stereo not drawn)	·	·	·	i	0.93	88.9	·
COC(=O)CP(=O)(c1ccccc1)c1ccccc1	-13.3	-38.5	114.3	i	0.93	103.2	-2.1
CCOc1c(Br)cc(C2NS(=O)(=O)N=C3CCCCCN32)cc1OC (stereo not drawn)	0.1	·	·	i	0.82	103.3	-2.0
Cc1ccccc1Nc1nc(Nc2ccccc2C)nc(SC2=NCCS2)n1	1.4	57.1	119.3	i	0.65	110.9	-1.7
C=CCNC(=O)/C(=C/c1ccco1)NC(=O)c1ccc(Br)o1	-9.7	-8.7	90.3	i	0.89	102.5	-0.8
COc1ccc(NS(=O)(=O)c2cc(NC(=O)c3ccncc3)ccc2N2CCOCC2)cc1	-9.2	23.1	120.3	i	0.97	108.2	-2.2
O=[N+]([O-])c1ccccc1S(=O)(=O)NCc1cccnc1	6.4	-33.3	84.5	i	0.85	105.8	·
CCOCCCNC(=O)c1ccc(-n2c(=S)[nH]c3ccccc3c2=O)cc1	4.2	·	·	i	0.98	103.2	·
CCOC(=O)c1c(C)[nH]c(C(=O)N/N=C/c2cccc(OC)c2)c1C	-0.8	·	·	·	·	104.1	0.1
O=C(NC1CC1)C1=NOC(CNc2ncc(C(F)(F)F)cc2Cl)C1 (stereo not drawn)	-5.4	43.8	134.0	i	0.92	101.1	0.1
CCCCC(=O)Nc1nnc(C2=COCCO2)o1	8.6	·	·	i	0.93	113.5	·
O=C(Nc1ccc2oc(=O)ccc2c1)c1cccnc1	0.4	-2.8	99.3	i	0.77	50.4	-2.6
O=C1c2ccccc2NC(c2cccc(Cl)c2)N1N=C1CCCCCC1 (stereo not drawn)	-4.6	·	·	i	1.04	99.7	-0.4
O=C(CS(=O)(=O)Cc1ccccc1)Nc1ccccc1Cl	2.8	-8.3	59.7	·	·	97.7	-0.9
COc1ccccc1N1CCN(C(=O)CCc2c[nH]c3ccccc23)CC1	-7.3	·	·	i	0.98	98.5	·
O=C(CSCCS(=O)(=O)c1ccc(Cl)cc1)Nc1ccccc1	·	·	·	i	1.09	100.7	·
CC(C)N1CCC(N2CCN(Cc3ccc4nsnc4c3)CC2CCO)CC1 (stereo not drawn)	-0.6	·	·	i	0.95	102.1	·
COCCNC(=O)c1ccccc1NC(=O)COc1ccccc1	1.9	-19.1	100.5	i	0.72	100.8	-1.7
c1csc(-c2nnc(NC3CCCCC3)c3ccccc23)c1	-2.3	·	·	i	1.28	102.0	0.0
Nc1cccc(-c2nc3cc(S(=O)(=O)c4ccc5oc(-c6cccc(N)c6)nc5c4)ccc3o2)c1	-1.7	32.0	83.9	i	0.57	98.8	-1.8
Cc1ccc(C)c(N2CCN(C(=O)C3CCN(S(=O)(=O)c4c(C)noc4C)CC3)CC2)c1	·	·	·	i	0.93	104.9	·
CC1CCCCC1NC(=O)NC(=O)CCl (stereo not drawn)	-14.6	34.6	66.7	i	0.94	84.8	-2.2
O=C(CSc1ccc(Cl)cc1)Nc1cccc(-c2nc3ccccc3[nH]2)c1	7.7	·	·	i	0.72	103.6	6.2*
O=C(OCn1nnc2ccccc2c1=O)c1ccc2ccccc2n1	3.1	7.7	73.3	i	1.04	99.8	-1.1
C=CCN1C(=O)C(Cc2cccc(Cl)c2)S/C1=N/N=C/c1ccco1 (stereo not drawn)	-6.5	-85.2	117.2	i	1.04	102.3	-2.6
Cc1cc(C)n(C)c(=O)c1C#N	-1.5	33.3	130.4	i	0.95	103.7	·
COC(=O)c1cc(C(=O)OC)cc(N2C(=O)CC(NNC(=O)c3ccccc3Br)C2=O)c1 (stereo not drawn)	9.2	4.4	110.5	i	0.9	92.2	-0.3
O=C(CN1CCC(n2nnc3cc(F)ccc32)CC1)NC1CCCCC1	-15.6	27.3	71.3	i	0.87	122.7	-0.6
CCOC(=O)c1oc2ccccc2c1NC(=O)C1CCCCC1	-6.2	18.5	81.5	i	1.02	101.3	0.1
N/C(COc1ccc(Cl)cc1Cl)=N\O	·	·	·	i	1.03	103.8	·
COc1ccc(C(=O)c2oc3ccc(Br)cc3c2NC(C)=O)cc1	-6.9	·	·	i	0.79	104.5	-2.1
O=c1[nH][nH]c(-c2ccccc2)c1C=Nc1ccc(Cl)cc1	4.3	19.2	134.2	i	0.98	99.9	-2.9
COc1ccc2oc(C)c(NC(C)=O)c2c1	-7.7	-27.3	115.9	i	0.9	83.8	-2.2
CCC(C)NC(C(=O)Nc1ccc(Cl)c([N+](=O)[O-])c1)c1ccccc1 (stereo not drawn)	1.9	15.6	89.1	i	0.9	99.5	0.0

The list continues.
SMILES	PKD1 inh	Insulin prom inh	Insulin prom inh cell count	HSV augment	HSV augment primary fold	RGS16-Gao	GALR2 agonist
Cc1ncc(CN2CCN(C3CCCC3)C(CCO)C2)s1 (stereo not drawn)	0.7	-6.7	106.5	i	1.05	89.9	·
Cc1cc(C)nc(/N=C(\N)Nc2ccc(F)c([N+](=O)[O-])c2)n1	-14.6	-53.6	60.9	i	0.74	100.9	-4.4
CCOC(=O)COc1nc(N(C)C)nc(N(C)C)n1	0.1	-45.5	70.4	i	0.92	105.3	-2.0
Cc1cc(C)c(NC2=CC(=O)CC(C)(C)C2)c(C#N)c1	11.0	7.1	150.2	i	1.12	103.9	-0.9
NC(=O)c1ccc(SCC(=O)NC2CCCCC2)c([N+](=O)[O-])c1	-2.3	-72.2	79.3	i	0.72	100.5	·
CCCSc1nc(=O)n2cc(C)ccc2n1	5.8	-75.0	133.7	i	1.33	103.1	-3.4
COc1ccc(NC(=O)CNC(=O)c2cccs2)cc1Cl	-10.0	·	·	i	1.01	95.8	·
Cn1c(SCC(=O)N(C2CCCCC2)C2CCCCC2)nnc1-c1cccs1	-3.7	2.7	128.2	i	0.59	101.9	-0.4
COc1ccc(CNC(=O)Cc2c(C(=O)O)[nH]c3ccccc23)cc1	-0.4	4.5	71.4	i	0.7	85.8	-2.5
O=C(CSCc1ccccc1)Nc1ccc2c(c1)OCO2	-4.9	42.5	193.2	i	0.95	163.8	-3.6
Cn1c(Cn2c(C(F)(F)F)nc3ccccc32)nc2ccccc21	-5.0	25.0	103.8	i	0.99	107.3	-2.9
CNC(=S)Nc1ccc(OC)c(OC)c1	-3.0	13.0	72.1	i	0.93	97.9	-1.9
O=C(CSc1nnc(C2COc3ccccc3O2)o1)N1CCOCC1 (stereo not drawn)	-9.2	11.6	125.7	i	0.69	76.2	-2.7
Cc1cc(C)c(-c2csc(NC(=O)C3=NN(c4ccccc4)C(=O)CC3)n2)c(C)c1	8.5	·	·	i	1.03	106.3	-1.3
Cc1ccccc1CN(c1ccc(C(=O)N/N=C/c2ccc(OCC(N)=O)cc2)cc1)S(C)(=O)=O	-5.6	·	·	i	0.93	103.5	·
NS(=O)(=O)c1ccc(NC(=S)NCc2ccccc2)cc1	-9.9	-33.3	92.2	i	0.93	98.8	0.1
Cc1cc(C)cc(NC2=CC(=O)CC(c3ccco3)C2)c1 (stereo not drawn)	-2.6	-36.1	81.2	i	0.97	83.9	-1.5
COCCCn1nnnc1SCC(=O)Nc1nc(C)c(C)s1	-6.2	5.3	134.1	i	1.05	102.2	-1.0
CCCOc1ccc(-c2cn3ccccc3n2)cc1	-2.7	33.3	135.6	i	0.91	100.2	·
CCN(Cc1ccccc1)C(=O)COC(=O)c1cc(Cl)nc(Cl)c1	-2.9	·	·	i	1.02	103.7	·
CC(C)NC(=O)C1CCN(C2CCN(Cc3ccc4cccc(F)c4n3)CC2)CC1	-1.9	·	·	i	1.07	93.6	·
CC(Sc1nnc2ccccn12)C(N)=O (stereo not drawn)	-3.5	·	·	i	1.01	102.1	·
CCOC(=O)C1=C(N)c2ccccc2CC1C1CCCC1 (stereo not drawn)	·	·	·	i	0.98	92.5	·

Compounds as they come, and some 1.3% of all compounds hit somewhere here.
